Source: PubChem
HCMV UL50-53 inh: inhibitors of HCMV UL50-UL53 interaction, biochemical, HTRF; 190,000 tested, 0.15% active; normalized percent inhibition; AID 1918969, 2023; inhibition, % (test concentration not listed);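 active = both replicates at 50% or more, plus weaker picks with an unusually low signal ratio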;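 note: stock transfer was 100 nL into about 20 µL; 0% = negative control wells and 100% = wells with untagged competitor protein; inactives centre near -12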
Sa growth inh: S. aureus growth inhibition at 42 and 30 °C, primary screen, LtaS inhibitor project, RN4220, two temperatures | OD600, 20 h, 42 °C; active compounds read low | relative growth, % (no concentration beside the values) | 170,000 tested, 0.53% active;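 active = growth at 42 °C up to 50% and 20 or more points under that at 30 °C, or under 10% at both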;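 note: 300 nL library stock went into each well; scaled to the means of positive and negative controls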
GIV-Gai inh: inhibitors of GIV peptide binding to Galpha-i3, primary screen, biochemical, fluorescence polarization, FITC-GIV GBA peptide, rat Galphai3; AID 1224905, 2016; percent of control (FP), % (concentration not given with the values); 210,000 tested, 0.42% active; 90 min; active compounds read low; scaled: aluminum fluoride 0%, vehicle 100%;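 active = replicate mean at 85% of control or lower, very high polarization wells dropped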;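 note: wells of about 15 µL received 100 nL stock; the first replicate is given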
Target sequence (P08753 whole entry, looked up): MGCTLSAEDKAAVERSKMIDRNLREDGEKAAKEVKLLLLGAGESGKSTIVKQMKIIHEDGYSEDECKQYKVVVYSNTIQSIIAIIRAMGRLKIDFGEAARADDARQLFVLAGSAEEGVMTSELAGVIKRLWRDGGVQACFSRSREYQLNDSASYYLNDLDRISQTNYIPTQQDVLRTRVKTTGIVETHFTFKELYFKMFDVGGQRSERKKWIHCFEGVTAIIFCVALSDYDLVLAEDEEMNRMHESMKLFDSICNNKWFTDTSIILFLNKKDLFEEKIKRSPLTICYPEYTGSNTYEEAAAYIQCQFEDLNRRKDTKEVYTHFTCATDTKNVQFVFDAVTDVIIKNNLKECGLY
Sa growth inh second temp: recorded beside Sa growth inh, whose call it bears; relative growth, %; measured here: growth at 30 °C;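 optical density after 20 h as mean of two plates; 100% = untreated growth and lower means inhibition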
Starred values were filed as active, the others as inactive; / = not tested or not shown; & = joins results of further samples.

1: Cn1c(=O)c2sccc2n2c(CCCC(=O)Nc3ccc(Oc4ccccc4)cc3)nnc12
2: Cc1ccc(NS(=O)(=O)c2ccc3c(c2)NC(=O)CCS3)cc1F
3: CCn1c(-c2ccc3c(c2)OCCO3)cnc1SCC(=O)c1ccc(CNC(C)=O)s1
4: CCCn1c(OC)nc2c1c(=O)n(C)c(=O)n2C
5: CCc1ccc(-c2ccc(=O)[nH]n2)cc1S(=O)(=O)Nc1ccc(C)c(C)c1
6: CCN(CC)S(=O)(=O)c1ccc(NC(=O)Cn2cnc3c2c(=O)n(C)c(=O)n3C)cc1
7: Cc1ccc(CNC(=O)c2cccc(Nc3nc4ccccc4n4cnnc34)c2)cc1
8: O=P(C1=C(N2CCOCC2)/C(=C\c2ccccc2)CC1)(N1CCOCC1)N1CCOCC1

Compound	1	2	3	4	5	6	7	8
Sa growth inh second temp	58	78	83	85	/	80	91	93
HCMV UL50-53 inh	/	/	-31	-6	-46	1	/	-35
Sa growth inh	102	105	94	88	/	92	73	83
GIV-Gai inh	94	103	/	101	104	94	106	/

9: Cc1ccc2oc(-c3ccc(NC(=O)c4cccc(F)c4)c(C)c3)nc2c1
10: COc1ccc(N2CCN(c3ccc(-c4nc(-c5cccc(C)c5)no4)cc3[N+](=O)[O-])CC2)cc1
11: O=S1(=O)c2ccccc2NC(c2ccccc2Cl)N1Cc1cccc(Br)c1 (stereo not given)
12: CSc1ncccc1C(=O)OCc1ccccc1F
13: Cc1cccc(NC(=O)Cn2cnc3c(oc4ccccc43)c2=O)c1C
14: COC(=O)CCn1c(=O)c2cccn2c2ccc(F)cc21
15: CC(C)=NNC(=O)CN(C1=NS(=O)(=O)c2ccccc21)c1ccccc1
16: COC(=O)c1ccccc1NC(=O)Cn1c(=O)n(CCCCC(=O)NCc2ccc3c(c2)OCO3)c(=O)c2ccccc21

Compound	9	10	11	12	13	14	15	16
Sa growth inh second temp	90	92	/	104	84	83	80	88
HCMV UL50-53 inh	-5	-1	-4	-25	-15	0	-19	-10
Sa growth inh	97	107	/	100	92	104	84	107
GIV-Gai inh	101	103	98	/	98	110	103	108

17: N#CC1=C(N)C(C#N)(C#N)C2(C(=O)Nc3ccccc32)C2CCCC=C12 (stereo not given)
18: Cc1cc(C)c(C#N)c(SCc2nc(-c3ccc(OC(F)(F)F)cc3)no2)n1
19: COc1ccc(Nc2ncnc3scc(-c4ccc(F)cc4)c23)cc1
20: CCOC(=O)c1sc(/N=C/N(C)C)nc1C
21: CN1CSC2=C(C#N)C(c3ccccc3)CC(=O)N2C1 (stereo not given)
22: N#CCCCSc1nnc(Cc2ccc3c(c2)OCO3)o1
23: CCC(=O)Oc1cc2c(C)cc(=O)oc2cc1Cl
24: Cc1cc(C(=O)O)c(CSc2ncn[nH]2)o1

Compound	17	18	19	20	21	22	23	24
Sa growth inh second temp	70	98	89	94	75	74	84	80
HCMV UL50-53 inh	-21	2	/	-39	/	2	-45	-5
Sa growth inh	90	89	101	84	91	90	100	130
GIV-Gai inh	118	101	97	/	104	96	/	/

Reformatted as a markdown table: part of the list above.
| item | structure | Sa growth inh second temp | HCMV UL50-53 inh | Sa growth inh | GIV-Gai inh |
| --- | --- | --- | --- | --- | --- |
| 10 | COc1ccc(N2CCN(c3ccc(-c4nc(-c5cccc(C)c5)no4)cc3[N+](=O)[O-])CC2)cc1 | 92 | -1 | 107 | 103 |
| 11 | O=S1(=O)c2ccccc2NC(c2ccccc2Cl)N1Cc1cccc(Br)c1 (stereo not given) | / | -4 | / | 98 |
| 12 | CSc1ncccc1C(=O)OCc1ccccc1F | 104 | -25 | 100 | / |
| 13 | Cc1cccc(NC(=O)Cn2cnc3c(oc4ccccc43)c2=O)c1C | 84 | -15 | 92 | 98 |
| 14 | COC(=O)CCn1c(=O)c2cccn2c2ccc(F)cc21 | 83 | 0 | 104 | 110 |
| 15 | CC(C)=NNC(=O)CN(C1=NS(=O)(=O)c2ccccc21)c1ccccc1 | 80 | -19 | 84 | 103 |
| 16 | COC(=O)c1ccccc1NC(=O)Cn1c(=O)n(CCCCC(=O)NCc2ccc3c(c2)OCO3)c(=O)c2ccccc21 | 88 | -10 | 107 | 108 |
| 17 | N#CC1=C(N)C(C#N)(C#N)C2(C(=O)Nc3ccccc32)C2CCCC=C12 (stereo not given) | 70 | -21 | 90 | 118 |
| 18 | Cc1cc(C)c(C#N)c(SCc2nc(-c3ccc(OC(F)(F)F)cc3)no2)n1 | 98 | 2 | 89 | 101 |
| 19 | COc1ccc(Nc2ncnc3scc(-c4ccc(F)cc4)c23)cc1 | 89 | / | 101 | 97 |
| 20 | CCOC(=O)c1sc(/N=C/N(C)C)nc1C | 94 | -39 | 84 | / |
| 21 | CN1CSC2=C(C#N)C(c3ccccc3)CC(=O)N2C1 (stereo not given) | 75 | / | 91 | 104 |
| 22 | N#CCCCSc1nnc(Cc2ccc3c(c2)OCO3)o1 | 74 | 2 | 90 | 96 |
| 23 | CCC(=O)Oc1cc2c(C)cc(=O)oc2cc1Cl | 84 | -45 | 100 | / |
| 24 | Cc1cc(C(=O)O)c(CSc2ncn[nH]2)o1 | 80 | -5 | 130 | / |

Next results follow.
25: COc1ccccc1Nc1nn2c(=O)c3ccc(C(=O)NCc4cccs4)cc3nc2s1
26: CC(C)CC(=O)Nc1sc2c(c1C#N)CCCCC2
27: O=C(NCc1cccnc1)C1c2ccccc2C(=O)N1C1CCCCCCC1 (stereo not given)
28: CCOc1ccc(C(=O)N2CC(=O)Nc3ccc(C)cc3C2c2ccccc2)cc1 (stereo not given)
29: CCN(CC)C(=O)CSc1nc2c(c(=O)n(C)c(=O)n2C)n1CC
30: OC(CNCC1CCCO1)COC(c1ccc(Cl)cc1)c1ccc(Cl)cc1 (stereo not given)
31: Cc1[nH]c(C(=O)NN)c(C)c1C(=O)NC1CCCCC1
32: O=C1C=CC2(C=C1)CC1(CCCCC1)N=C2SCc1ccccc1

Compound	25	26	27	28	29	30	31	32
Sa growth inh second temp	80	98	95	100	94	51	84	66
HCMV UL50-53 inh	/	-2	-8	/	/	4	-6	/
Sa growth inh	164	111	106	100	83	83	92	65
GIV-Gai inh	107	98	108	102	109	/	106	99

33: Cc1ccc(NC(=O)CSc2ncnc3c2sc2ccccc23)cc1C
34: CCOc1ccc(S(=O)(=O)N2CCN(c3cc(Cl)ccc3Cl)CC2)c2ccccc12
35: CCN(CC)C1=N/C(=C/c2ccccc2)C(=O)N1c1ccc(Cl)cc1
36: CN(Cc1ccccc1)C(=O)c1cc(-c2ccc(Cl)cc2)on1
37: CCCCNC(=O)c1cnn(-c2cccc(F)c2)c1-n1cccc1
38: O=C(NCc1ccncc1)c1cc2ccccc2nc1Cl
39: COc1ccc(/C=C2\SC(=S)N(CCCCCC(=O)N3CCN(C)CC3)C2=O)cc1
40: O=C1c2ccccc2C(=O)N1CC1OCc2ccccc2CO1

Compound	33	34	35	36	37	38	39	40
Sa growth inh second temp	98	94	89	94	102	81	37	85
HCMV UL50-53 inh	/	-10	-21	/	2	-35	-83	/
Sa growth inh	110	99	90	88	93	92	81	99
GIV-Gai inh	110	103	/	102	100	/	99	112

41: O=C1N/C(=C\c2ccccc2Cl)C(=O)N1Cc1ccc(Cl)cc1
42: NS(=O)(=O)c1ccc(CNC(=O)c2ccc(=O)[nH]c2)cc1
43: FC(F)(F)c1cc(Nc2nc3ccccc3c3nncn23)ccc1Cl
44: Cc1sc2nc(CC(=O)NN)[nH]c(=O)c2c1C
45: COc1cccc(C(=O)Nc2ccccc2-c2nnc(-c3cccc(OC)c3)o2)c1
46: Cc1ccc(-n2nc(C(=O)NCCN(C)C)c(=O)n(C)c2=O)cc1
47: COc1ccc(-c2cc(-c3ccccc3)c(-c3ccccc3)nn2)cc1CN1CCOCC1
48: Cc1cc(C)c(NC(=O)CCN2CCCCC2)c(C)c1

Compound	41	42	43	44	45	46	47	48
Sa growth inh second temp	102	90	81	75	90	93	91	89
HCMV UL50-53 inh	/	-40	-8	-2	-8	/	-19	-8
Sa growth inh	101	82	109	85	97	94	91	105
GIV-Gai inh	105	/	107	/	105	103	103	103

49: Cc1ccsc1C(=O)OCC(N)=O
50: COc1ccc(-c2ccc(CNC3CC3)o2)cc1Cl
51: COc1ccccc1NC(=O)CN(Cc1ccco1)C(=O)c1ccc(OC)c(OC)c1
52: O=C(Cn1cnc2ccccc21)OCc1ccc(Br)cc1
53: O=c1[nH]c(CN2CCN(Cc3ccccc3)CC2)nc2sc3c(c12)CCC3
54: CSc1nc(C)nc(Nc2ccccc2)c1C#N
55: O=C(Cn1cnc(S(=O)(=O)N2CCCCC2)c1)Nc1ccccc1
56: COc1ccc(C(=O)Nc2cccc(-c3cn4ccsc4n3)c2)cc1OC

Compound	49	50	51	52	53	54	55	56
Sa growth inh second temp	89	94	85	65	96	84	87	63
HCMV UL50-53 inh	1	-30&-29	-3	-8	-6	-12	-20	/
Sa growth inh	104	80	94	84	92	92	100	57
GIV-Gai inh	/	100&102	/	/	/	94	101	106

57: CC1=CC(=O)C(C(=O)/C=C/c2cn(-c3ccccc3)nc2-c2cc3ccccc3o2)C(=O)O1 (stereo not given)
58: CCCn1c(=O)c2ccc(C(=O)NC(C)C)cc2n2c(=O)n(Cc3ccccc3Cl)nc12
59: CCCCNC(=O)c1cnc2n(c1=O)CCS2
60: Cc1cc(NC(=O)NC2CC(=O)N(C3CCCC3)C2)ccc1Br (stereo not given)
61: O=S(=O)(NCCCN1CCN(Cc2ccccc2)CC1)c1cccc(Cl)c1Cl
62: CCC(C)c1ccc(Oc2ccc(S(=O)(=O)N3CCCCC3)cn2)cc1 (stereo not given)
63: N#Cc1ccccc1NC(=O)C(=O)NCC(c1ccc2c(c1)OCO2)N1CCN(c2ccccc2)CC1 (stereo not given)
64: O=C(c1cn[nH]c1)c1cc(F)ccc1O

Compound	57	58	59	60	61	62	63	64
Sa growth inh second temp	90	/	73	82	100	104	99	80
HCMV UL50-53 inh	-3	7	-23	/	/	-11	/	-50
Sa growth inh	112	/	85	101	118	96	118	85
GIV-Gai inh	/	104	99	98	118	/	105	/

65: CCOc1ccc(-c2[nH]nc3nc(-c4ccc(OC)cc4)cc(C(=O)O)c23)cc1
66: CC1CCN(c2cc3c(cc2F)c(=O)c(S(=O)(=O)c2ccc(Cl)cc2)cn3C)CC1
67: COc1ccc(N=C(N(C)C)P(=O)(N(C)C)N(C)C)cc1
68: O=C(CCn1ccc2cc(S(=O)(=O)N3CCCC3)ccc21)NCc1cccc(F)c1
69: COC(=O)Cc1c(C(=O)OC)sc(N)c1C#N
70: COc1cc(C(=O)N(Cc2ccccc2)Cc2cc3ccc(C)cc3[nH]c2=O)cc(OC)c1OC
71: COc1ccc2cc3cc(C(=O)NCCN4CCOCC4)oc3nc2c1
72: Cn1cc(C(=O)NCCc2ccccc2)c(=O)c2cc(S(=O)(=O)N3CCCCC3)ccc21

Compound	65	66	67	68	69	70	71	72
Sa growth inh second temp	/	93	88	92	90	80	/	96
HCMV UL50-53 inh	-35	/	4	/	-30	-7	-61	3
Sa growth inh	/	98	114	101	94	110	/	99
GIV-Gai inh	101	106	/	97	/	/	96	106

73: O=C(NCCC1=CCCCC1)c1cnc2sccn2c1=O
74: CCc1cccc(C)c1NC(=O)CSc1nc2c(c(=O)[nH]1)CCC2
75: CCCn1nc(C(=O)Nc2ccc3nc(N4CCOCC4)sc3c2)ccc1=O
76: O=C(CSc1nnc(Cc2ccccc2)o1)N(c1ccccc1)c1ccccc1
77: CC1(C)CC(=O)C2=C(C1)N(CCN1CCOCC1)C1=C(C(=O)CC(C)(C)C1)C2c1cccc(Cl)c1
78: CC1=C(C)SC(=C(C#N)c2nc(-c3ccccc3)cs2)S1
79: Cc1nc(-c2ccc(Cl)c(S(=O)(=O)N3CCCC(C(=O)N4CCN(c5ccccc5)CC4)C3)c2)no1 (stereo not given)

Compound	73	74	75	76	77	78	79
Sa growth inh second temp	/	97	85	73	89	90	/
HCMV UL50-53 inh	-14	-1	4	-14	/	-39	-20
Sa growth inh	/	102	98	117	99	108	/
GIV-Gai inh	107	109	/	102	103	/	96
